Screening data (PubChem BioAssay)
rRNA inh HTS – inhibitors of bacterial rRNA selective over humanized ribosomes; AID 720706; E. coli WT GFP vs humanized-ribosome RFP mutants, fluorescence, 24 h; hits give low values; DMSO median 0, no signal -100; 1.6% of 350,000 active; GFP signal change (wild-type ribosome), % (no concentration beside the values);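 active = significant combined selectivity score with lowered wild-type GFP, culture density cut under 30%, mutant RFP and density less affected; inactive = any of these conditions unmet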; note: one replicate is shown; some compounds called inactive have numbers as strong as hits
rRNA inh HTS OD600 – recorded beside rRNA inh HTS, whose call it bears; OD600 change, %; measured here: OD600 growth;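 optical density of the mix in the first replicate; 0 = DMSO median and -100 = no signal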
rRNA inh HTS RFP – second read-out of rRNA inh HTS, no call of its own (marks repeat the call); RFP signal change, %; measured here: RFP humanized mutant strains;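 first replicate; 0 = DMSO median and -100 = no signal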
The depositor's hits bear a star. These rows are one share of the data; count on the stated rates, not on these rows.

rRNA inh HTS	molecule	rRNA inh HTS OD600	rRNA inh HTS RFP
3	CCCCCCCCN1C(=O)[C@H](CC(=O)NCc2ccc(OC)c(OC)c2)C[C@@]2(C(=O)OCC)CCCC=C12	1	-6.3
1	COc1ccc(CN(C)C[C@@H]2OCCCC[C@@H](C)Oc3ccc(NC(=O)Nc4ccc5c(c4)OCO5)cc3C(=O)N([C@H](C)CO)C[C@H]2C)cc1	-33	38
1	COc1ccc(CN(C)C[C@H]2Oc3ccc(NS(=O)(=O)c4ccc(OC)cc4)cc3CC(=O)N([C@@H](C)CO)C[C@H]2C)cc1	-12	2.3
1	CO[C@@H]1CN(C)C(=O)c2cc(NS(=O)(=O)c3ccccc3Cl)ccc2OC[C@H](C)NC[C@H]1C	-2	-3.5
-4	C[C@@H](NC(=O)C[C@@H]1C[C@H]2c3cc(NC(=O)C4CCOCC4)ccc3O[C@H]2[C@@H](CO)O1)c1ccccc1	-4	-0.8
-3	COc1cccc(CNC(=O)C[C@H]2CC[C@@H]3[C@H](COc4ccc(NC(=O)c5cccs5)cc4C(=O)N3C)O2)c1	-1	-0.4
-4	CCN(c1ccccc1)S(=O)(=O)c1cccc(C(=O)NCC(c2ccc(OC)cc2)N2CCCCC2)c1 (stereo unspecified)	-28	-0.5
-8	Cc1noc(C)c1-c1ccc(C(=O)Nc2cccc(NS(C)(=O)=O)c2)c2occc12	-3	2.7
0	CS(=O)(=O)Nc1ccc2c(c1)[C@H]1C[C@@H](CC(=O)NCc3cc(F)ccc3F)O[C@@H](CO)[C@H]1O2	1	-0.6
2	CO[C@@H]1CN(C)C(=O)c2cc(NC(=O)c3cc(C)on3)ccc2OC[C@@H](C)NC[C@@H]1C	2	-0.1
0	C[C@@H]1CCCCO[C@@H](CN(C)C(=O)CCC(F)(F)F)[C@@H](C)CN([C@H](C)CO)C(=O)c2cc(NS(=O)(=O)c3ccccc3)ccc2O1	-1	-0.2
-12	C[C@@H]1CN([C@@H](C)CO)S(=O)(=O)c2ccc(C#Cc3ccccn3)cc2O[C@@H]1CN(C)Cc1ccccc1	-18	3.0
3	C[C@H](CO)N1C[C@H](C)[C@@H](CN(C)C)Oc2ncc(-c3ccccc3)cc2C1=O	5	-0.1
-2	CCC(=O)N(C)C[C@@H]1Oc2cc(C#Cc3ccncc3)ccc2S(=O)(=O)N([C@@H](C)CO)C[C@@H]1C	2	2.0
3	C[C@@H]1CN([C@H](C)CO)S(=O)(=O)c2ccc(-c3ccccc3)cc2O[C@@H]1CN(C)C(=O)CN(C)C	-3	1.8
-5	COc1cccc(-c2ccc3c(c2)[C@@H]2[C@@H](CCN2C(=O)c2cccc(F)c2)[C@H](CO)N3)c1	-30	19
4	O=C(CC1CC1)N1CC(=O)N2[C@H](CO)[C@@H](c3ccc(-c4cccnc4)cc3)[C@@H]2C1	11	1.6
2	Cc1noc(C)c1NC(=O)Nc1ccc2c(c1)C(=O)N([C@@H](C)CO)C[C@@H](C)[C@H](CN(C)S(=O)(=O)c1ccc(Cl)cc1)O2	4	-1.3
-2	CO[C@H]1CN(C)C(=O)c2cc(NS(C)(=O)=O)ccc2OC[C@@H](C)N(CC2CCCCC2)C[C@@H]1C	-15	7.7
0	CC(C)[C@@H]1C(=O)N[C@H](c2ccccc2)CC=CC[C@@H](C)Oc2ccccc2C(=O)N1C (mixture of isomers)	-1	-0.5
-14	C/C=C/c1cccc(-c2nc(C(=O)NCc3ccncc3)cc3c2[C@@H](CCO)N([S@](=O)C(C)(C)C)C3)c1	-3	7.9
-5	COc1cccc(S(=O)(=O)N2CC[C@@H]3[C@H](CO)Nc4ccc(C#Cc5ccccc5)cc4[C@@H]32)c1	4	-2.7
-3	Cc1cccc(-c2ccc([C@H]3[C@H]4CN(Cc5ccncc5)CCCCN4[C@H]3CO)cc2)c1	-15	17
-3	COc1ccccc1C#Cc1cnc2c(c1)C(=O)N([C@@H](C)CO)C[C@H](C)[C@@H](CN(C)S(=O)(=O)c1cn(C)cn1)O2	4	-2.8
1	C[C@@H]1CN([C@@H](C)CO)S(=O)(=O)c2ccc(C#CCN(C)C)cc2O[C@@H]1CN(C)Cc1ccccc1	-5	0.3
1	O=C(C[C@H]1CC[C@H](NC(=O)Cc2ccccn2)[C@H](CO)O1)NCCc1ccncc1	4	0.0
1	COC(=O)[C@]12C[C@H](CC(=O)NCc3ccccc3)C(=O)N(Cc3ccccc3)C1=C[C@H](C1CCCC1)O[C@@H]2C	-6	2.6
-5	C[C@@H]1CN([C@@H](C)CO)C(=O)c2cc(NC(=O)C3CCCCC3)ccc2O[C@@H]1CN(C)Cc1ccc(-c2ccccc2)cc1	-10	5.9
2	CC(=O)N1[C@H](C(=O)N[C@@H](C)c2ccccc2)[C@@H](CO)[C@@H]2Cn3c(cccc3=O)[C@@H]21	1	-2.3
0	CO[C@H]1CN(C)C(=O)c2ccc(NC(=O)c3ccc(F)cc3)cc2OC[C@H](C)N(C(C)=O)C[C@H]1C	-1	3.9

Quoted at random: two compounds from above
rRNA inh HTS	molecule	rRNA inh HTS OD600	rRNA inh HTS RFP
1	CO[C@@H]1CN(C)C(=O)c2cc(NS(=O)(=O)c3ccccc3Cl)ccc2OC[C@H](C)NC[C@H]1C	-2	-3.5
1	COC(=O)[C@]12C[C@H](CC(=O)NCc3ccccc3)C(=O)N(Cc3ccccc3)C1=C[C@H](C1CCCC1)O[C@@H]2C	-6	2.6

Arranged by SMILES length (lowest first): 16 of the compounds above
rRNA inh HTS	molecule	rRNA inh HTS OD600	rRNA inh HTS RFP
1	O=C(C[C@H]1CC[C@H](NC(=O)Cc2ccccn2)[C@H](CO)O1)NCCc1ccncc1	4	0.0
-3	Cc1cccc(-c2ccc([C@H]3[C@H]4CN(Cc5ccncc5)CCCCN4[C@H]3CO)cc2)c1	-15	17
-4	CCN(c1ccccc1)S(=O)(=O)c1cccc(C(=O)NCC(c2ccc(OC)cc2)N2CCCCC2)c1 (stereo unspecified)	-28	-0.5
0	CC(C)[C@@H]1C(=O)N[C@H](c2ccccc2)CC=CC[C@@H](C)Oc2ccccc2C(=O)N1C (mixture of isomers)	-1	-0.5
1	CO[C@@H]1CN(C)C(=O)c2cc(NS(=O)(=O)c3ccccc3Cl)ccc2OC[C@H](C)NC[C@H]1C	-2	-3.5
-5	COc1cccc(S(=O)(=O)N2CC[C@@H]3[C@H](CO)Nc4ccc(C#Cc5ccccc5)cc4[C@@H]32)c1	4	-2.7
0	CO[C@H]1CN(C)C(=O)c2ccc(NC(=O)c3ccc(F)cc3)cc2OC[C@H](C)N(C(C)=O)C[C@H]1C	-1	3.9
3	C[C@@H]1CN([C@H](C)CO)S(=O)(=O)c2ccc(-c3ccccc3)cc2O[C@@H]1CN(C)C(=O)CN(C)C	-3	1.8
-14	C/C=C/c1cccc(-c2nc(C(=O)NCc3ccncc3)cc3c2[C@@H](CCO)N([S@](=O)C(C)(C)C)C3)c1	-3	7.9
0	CS(=O)(=O)Nc1ccc2c(c1)[C@H]1C[C@@H](CC(=O)NCc3cc(F)ccc3F)O[C@@H](CO)[C@H]1O2	1	-0.6
-3	COc1cccc(CNC(=O)C[C@H]2CC[C@@H]3[C@H](COc4ccc(NC(=O)c5cccs5)cc4C(=O)N3C)O2)c1	-1	-0.4
1	COC(=O)[C@]12C[C@H](CC(=O)NCc3ccccc3)C(=O)N(Cc3ccccc3)C1=C[C@H](C1CCCC1)O[C@@H]2C	-6	2.6
-5	C[C@@H]1CN([C@@H](C)CO)C(=O)c2cc(NC(=O)C3CCCCC3)ccc2O[C@@H]1CN(C)Cc1ccc(-c2ccccc2)cc1	-10	5.9
-3	COc1ccccc1C#Cc1cnc2c(c1)C(=O)N([C@@H](C)CO)C[C@H](C)[C@@H](CN(C)S(=O)(=O)c1cn(C)cn1)O2	4	-2.8
2	Cc1noc(C)c1NC(=O)Nc1ccc2c(c1)C(=O)N([C@@H](C)CO)C[C@@H](C)[C@H](CN(C)S(=O)(=O)c1ccc(Cl)cc1)O2	4	-1.3
0	C[C@@H]1CCCCO[C@@H](CN(C)C(=O)CCC(F)(F)F)[C@@H](C)CN([C@H](C)CO)C(=O)c2cc(NS(=O)(=O)c3ccccc3)ccc2O1	-1	-0.2

Going on with the list:
rRNA inh HTS	molecule	rRNA inh HTS OD600	rRNA inh HTS RFP
-4	C[C@H]1CCCCO[C@H](CN(C)C(=O)Cc2ccccc2)[C@@H](C)CN([C@@H](C)CO)C(=O)c2cc(NS(=O)(=O)c3ccccc3)ccc2O1	-8	7.3
-40	COc1ccccc1NC(=O)N1C[C@H]2[C@@H](c3ccccc31)[C@@H](CO)N2Cc1ccccc1F	-63	19
8	O=C(c1ccccc1F)N1CC(=O)N2[C@H](CO)[C@@H](c3ccc(-c4ccccc4)cc3)[C@@H]2C1	-13	16
-1	CCOc1ccc(-c2nc(CSCC(=O)NC3CCN(Cc4ccccc4)CC3)c(C)o2)cc1	-4	1.9
-2	CC(=O)N(C)C[C@H]1Oc2cc(-c3ccccc3C)ccc2S(=O)(=O)N([C@@H](C)CO)C[C@@H]1C	-5	-0.4
1	CO[C@@H]1CN(C)C(=O)c2cc(NS(C)(=O)=O)ccc2OC[C@H](C)N(C(=O)C2CCC2)C[C@@H]1C	2	-0.3
-1	CC(=O)NC[C@@H]1[C@@H](c2ccc(-c3cccc(F)c3)cc2)[C@H](CO)N1C(C)=O	-5	2.0
5	O=C(C[C@@H]1CC[C@H](NC(=O)Nc2ccccc2)[C@H](CO)O1)NCc1ccccn1	7	-3.2
3	CCCC(=O)Nc1ccc2c(c1)C(=O)N(C)[C@@H]1CC[C@@H](CC(=O)NCCc3ccncc3)O[C@H]1CO2	6	-1.1
-19*	O=C(Nc1ccc(Cl)cc1)N1C[C@H]2[C@@H](c3ccccc31)[C@H](CO)N2C(=O)c1ccccn1	-8.2*	2.7*
-3	C[C@H](CO)N1C[C@H](C)[C@H](CN(C)C(=O)Nc2ccc(-c3cccs3)cc2)OCc2cn(nn2)CCCC1=O	-9	-1.7
6	COCCCN1C(=O)C(CC(=O)NCCc2ccccn2)CC(C(=O)N(C(C)C)C(C)C)=C1C (stereo unspecified)	11	-2.1
4	COc1ccc(C#Cc2ccc3c(c2)[C@@H]2[C@@H](CCN2C(=O)C2CCCCC2)[C@@H](CO)N3)cc1	24	-1.3
2	COc1ccc(S(=O)(=O)N(C)C[C@H]2OCCCC[C@@H](C)Oc3ccc(NC(=O)Nc4c(C)noc4C)cc3C(=O)N([C@H](C)CO)C[C@@H]2C)cc1	4	1.3
0	CO[C@H]1CN(C)C(=O)c2ccc(NC(=O)Nc3ccccc3)cc2OC[C@@H](C)N(C(=O)Nc2c(C)noc2C)C[C@H]1C	0	2.5
0	O=C(N[C@@H]1CC[C@H](CCNS(=O)(=O)c2cccc(Cl)c2)O[C@H]1CO)c1ccccc1	7	-2.1
3	COc1ccc(NC(=O)N(C)C[C@H]2Oc3c(NC(=O)Nc4ccc5c(c4)OCO5)cccc3C(=O)N([C@@H](C)CO)C[C@@H]2C)cc1	-6	1.7
4	C[C@H](CO)N1C[C@H](C)[C@@H](CN(C)Cc2ccc3c(c2)OCO3)Oc2ccc(NC(=O)CCCN(C)C)cc2CC1=O	-1	1.5
-1	CC(C)NC(=O)N[C@H]1C=C[C@@H](CC(=O)N2CCCCC2)O[C@H]1CO	-8	-1.6
-1	CCNC(=O)C[C@H]1CC[C@H]2[C@@H](COc3ccc(NC(=O)Nc4ccccc4Cl)cc3C(=O)N2C)O1	-3	1.7
3	C[C@@H]1CCCCO[C@H](CN(C)C(=O)Nc2cccc3ccccc23)[C@@H](C)CN([C@H](C)CO)C(=O)c2cc(NC(=O)Nc3cccc4ccccc34)ccc2O1	12	-2.1
1	C[C@@H]1CCCCO[C@@H](CN(C)S(=O)(=O)c2ccc(Cl)cc2)[C@@H](C)CN([C@@H](C)CO)C(=O)c2cc(NC(=O)Nc3ccc(F)cc3)ccc2O1	3	0.6
-1	C[C@@H]1CN([C@@H](C)CO)C(=O)c2cc(NC(=O)NC3CCCCC3)ccc2O[C@@H](C)CCCCO[C@H]1CN(C)C(=O)c1ccncc1	-4	-0.1
-5	COc1ccc(S(=O)(=O)N(C)C[C@@H]2OCCCC[C@@H](C)Oc3ccc(NC(=O)NC(C)C)cc3C(=O)N([C@@H](C)CO)C[C@H]2C)cc1	-2	0.6
0	CC(C)C(=O)Nc1ccc2c(c1)C(=O)N(C)[C@H]1CC[C@H](CC(=O)N[C@H](C)c3ccccc3)O[C@H]1CO2	0	0.3
2	CO[C@@H]1CN(C)C(=O)c2ccc(NS(=O)(=O)c3ccccc3F)cc2OC[C@@H](C)NC[C@@H]1C	0	-0.7
1	CO[C@H]1CN(C)C(=O)c2ccc(NC(=O)C3CCOCC3)cc2OC[C@H](C)N(C)C[C@@H]1C	6	-1.1
-28	CC(C)(C)OC(=O)N1C(=O)[C@](OC(=O)c2ccccc2)(c2ccccc2)c2cccc(F)c21	-31	-8.6
1	C[C@@H]1CN([C@H](C)CO)S(=O)(=O)c2ccc(-c3ccc(C(=O)N(C)C)cc3)cc2O[C@H]1CN(C)C	-3	-1.9
9	C[C@H](O)C#Cc1cnc2c(c1)C(=O)N([C@@H](C)CO)C[C@H](C)[C@H](CN(C)C(=O)c1ccccc1F)O2	17	-1.2
